Compound activity (PubChem)
E coli growth – inhibitors of Escherichia coli growth; OD600, 23 h; hits give low values; OD600 absorbance (no concentration beside the values); 0.21% of 330,000 active; AID 1053175;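 active means OD600 absorbance below the run mean of sample wells minus 3.6 SD, in any replicate, cut at about 0.56 in these data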;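 further: stock transfer was 300 nL into about 60 µL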
* marks the source's active call; other numbers are inactive results; & = joins results of further samples. Some of the compounds tested; rates above refer to the full screens.

SMILES | E coli growth
CCOC1OC(C(=O)N2CCN(Cc3ccc4c(c3)OCO4)CC2)=CC(c2ccc(C(F)(F)F)cc2)C1CCCO (stereo unspecified) | 0.687
Cc1cccc(N(CC(=O)NN=Cc2ccc(OCC(=O)NCc3ccco3)cc2)S(C)(=O)=O)c1C | 0.818
CCN1C(=O)C(=C2Sc3ccccc3N2CC)OC1=S | 0.706
Nc1c(Cl)ncnc1NN=Cc1ccnc2ccccc12 | 0.704
Nc1nnnn1CC(=O)NN=Cc1ccccn1 | 0.637
COc1cccc(C=NNC(=O)c2cc(-c3cccn3C)n[nH]2)c1O | 0.7
CC1(C)OC2C(CO)OC(n3cnc4c(=O)[nH]cnc43)C2O1 (stereo unspecified) | 0.701
CC=CC(=O)Nc1cccc(C2=NOC3(C2)CC(C(N)=O)N(C(=O)c2ccc(OC)cc2)C3)c1 (stereo unspecified) | 0.73
COc1ccc(C=NNC(=O)c2ccncc2)cc1CN1CCOCC1 | 0.679
CC1CC2C(C(O)C[C@@]3(C)C2CC[C@]3(O)C(=O)CO)[C@@]2(C)C=CC(=O)C=C12 (stereo partly specified) | 0.718
Cc1ccc(N2CCN(N=Cc3c(C)nn(-c4ccccc4)c3Cl)CC2)cc1 | 0.73
Cc1occc1C(=O)NN=Cc1ccc[nH]1 | 0.722
N#CC1=C(N)OC2=C(CN(Cc3ccccc3)CC2=Cc2cccnc2)C1c1cccnc1 (stereo unspecified) | 0.749
COc1cc(OC)c(C=NNC(=O)c2ccc(Cn3nc([N+](=O)[O-])cc3C)cc2)c(OC)c1 | 0.628
O=C(NN=Cc1ccco1)c1cccc(NC(=O)c2ccccc2Cl)c1 | 0.643
COc1cccc(C=NNc2cc(Cl)nc(C)n2)c1O | 0.731
Cc1ccc(-c2nn(-c3ccccc3)cc2C=NNC(=O)CSc2nnc(C)n2-c2ccccc2)cc1 | 0.741
O=C(NN=Cc1cccnc1)C1CC1(c1ccccc1)c1ccccc1 (stereo unspecified) | 0.637
Cc1c(C=CC(=O)c2ccc(O)cc2)cnn1C | 0.668
C#CCOCCOCCOCCNc1nc(N2CCN(C(=O)C(CCCCN)n3cc(C(N)CC(N)=O)nn3)CC2)nc(N2CCN(C(=O)C(CCCCN)n3cc(C(N)CC(N)=O)nn3)CC2)n1 (stereo unspecified) | 0.709
CC1CN(C(C)CO)C(=O)c2cccc(N(C)C)c2OC1CN(C)C(=O)Nc1ccc(C(F)(F)F)cc1 (stereo unspecified) | 0.64
Cc1ccc(C=NNC(=O)c2ccco2)cc1 | 0.626
Cc1c(C=NNC(=O)COc2ccccc2[N+](=O)[O-])c2ccccc2n1C | 0.663
O=C(COc1cccc(Br)c1)NN=C1CCCc2ccccc21 | 0.678
N#Cc1cccc(CN2CCC(=O)N(C(CO)Cc3ccccc3)CC2)c1 (stereo unspecified) | 0.681
CC(=NOC(=O)c1c(-c2c(F)cccc2Cl)noc1C)c1cnccn1 | 0.716
CC(=NNC(=O)c1c(Cl)c(C)nn1C)c1ccc(NC(=O)COc2ccc(Cl)cc2C)cc1 | 0.779
CCOC(=O)C(=NNc1cc(Cl)ccc1Cl)N1CCOCC1 | 0.697
CCCN1CCC(=O)N(C(CSc2ccc(C)cc2)Cc2ccccc2)CC1 (stereo unspecified) | 0.659
CN1CCN(C(=O)C2=CC(C(C)(C)C)CC(OCc3ccc(CO)cc3)O2)CC1 (stereo unspecified) | 0.688
CCOC(=O)C1C2COc3ccc(Br)cc3C2N2C(=O)c3cc(OC)c(OC)cc3NC(=O)[C@@]12C (stereo partly specified) | 0.724
Cc1cccc(N2C(=O)N3C(c4ccc(F)cc4)C4C(=O)N(C5CCCCC5)C(=O)C4[C@]3(Cc3ccc(Cl)cc3)C2=O)c1 (stereo partly specified) | 0.703
CC(=NNc1nc2ccccc2nc1C)c1ccccc1O | 0.722
CCCCNC(=S)N(C)N=Cc1ccc(F)cc1 | 0.686
COC(=O)C1=C(C(=O)OC)C2N(Cc3ccccc3)c3ccccc3[C@@]23CC(C(=O)OC)N(C(=O)C2CCC2)C3=N1 (stereo partly specified) | 0.707
CC(C)CC(CSc1ccccc1)N1CCN(CCc2ccccc2)CCC1=O (stereo unspecified) | 0.702
CC(=NNC(=O)c1c([N+](=O)[O-])c(C)nn1C)c1ccc(NC(=O)C2CCCC2)cc1 | 0.676
Cc1cc(C(=O)NC(c2ccccc2)[C@]2(C)CC2C(C)C(=O)Nc2ccc3ccccc3c2)no1 (stereo partly specified) | 0.68
N#Cc1ccc(C23CC4(C2)C(CN(Cc2ccc(C(F)(F)F)cc2)C4c2ccccc2)C3c2ccccc2)cc1 (stereo unspecified) | 0.631
COc1ccc(OCC(=O)NN=Cc2ccncc2)cc1 | 0.683
CN(C)N=Cc1ccc([N+](=O)[O-])cc1[N+](=O)[O-] | 0.701
CC(O)C1CN=C(N)N1CC1CCCCC1 (stereo unspecified) | 0.7
COc1ccc(-c2nn(-c3ccccc3)cc2C=NNc2ccccn2)cc1OC | 0.678
CN(C)Cc1c(C(=O)NN=Cc2cccc(OCc3ccc(F)cc3)c2)nnn1-c1nonc1N | 0.708
Cc1nn(-c2ccccc2)c(Cl)c1C=NNc1ccc(Cl)c(C(=O)O)c1 | 0.692
C#CCOCCOCCOCCNc1nc(N2CCN(C(=O)C(CCCN=C(N)N)n3cc(C(N)C(C)CC)nn3)CC2)nc(N2CCN(C(=O)C(C(C)O)n3cc(C(N)CCCCN)nn3)CC2)n1 (stereo unspecified) | 0.656
Cc1ccc2nc(Cl)c(C=NNC(=O)CN3CCOCC3)cc2c1 | 0.688
CC(/C=C/c1ccc2c(c1)OCO2)=NNC(=O)c1ccc(C)nc1 | 0.717
NCCCCC(N)c1nnc(C(CCC(=O)O)NC(=O)C2CCNCC2)o1 (stereo unspecified) | 0.701
CC(C)CC(NC(=O)OC(C)(C)C)C(=O)NC(CO)C(O)C1CC1C(=O)N1CCCC1 (stereo unspecified) | 0.706
(next part)
SMILES | E coli growth
CCN1C(=O)C2C(c3ccccc3)N3C(=O)N(c4cccc(F)c4)C(=O)[C@@]3(CC(C)C)C2C1=O (stereo partly specified) | 0.7
CCOc1ccc2c(c1)sc(=NS(=O)(=O)c1ccc(OC)cc1)n2C(F)F | 0.711
COc1ccc(C=NNC(=O)C2C3CCCCC32)cc1OC (stereo unspecified) | 0.684
CC(=O)Nc1ccc(NC(=O)CC(C)=NNC(=O)C(=O)N2CCCC2)cc1 | 0.689
Nc1nnnn1N=Cc1ccco1 | 0.671
COc1cccc(C=NN2CCN(c3ccncc3S(=O)(=O)N3CCCCC3)CC2)c1 | 0.731
CC(=NNC(=O)c1nnn(-c2nonc2N)c1-c1ccc2c(c1)OCO2)c1ccccc1 | 0.645
CC(=NNC(=O)CNC(=O)C1COc2ccccc2O1)c1ccco1 (stereo unspecified) | 0.647
CCCCCCOc1ccc(C=NNC(=O)C2CC2)cc1 | 0.655
NC(Cc1ccc([N+](=O)[O-])cc1)=NOC(=O)c1ccc2ccccc2c1 | 0.773
O=C(O)c1cccc(-n2cccc2C=NO)c1 | 0.721
COc1cc(C=Nn2c(-c3cc(C)[nH]n3)n[nH]c2=S)cc(OC)c1O | 0.681
CCOc1ccccc1C=NNc1cc(C)nc2ccc(C)cc12 | 0.646
COC(=O)NN=Cc1cc(C)n(-c2ccccc2)c1C | 0.696
O=C(NN=Cc1ccc(OC(=O)c2ccccc2)cc1)c1cccnc1 | 0.68
O=C(O)c1ccc(C=NNc2ncc(C(F)(F)F)cc2Cl)cc1 | 0.677
Cc1ccc(-n2c(C)cc(C=NNC(=O)c3ccncc3)c2C)c(C)c1 | 0.746
Cc1[nH]c2ccccc2c1C=NNC(=O)CCC(=O)NCc1ccccc1 | 0.673
Cc1ccc(CN2CCN(CC(=O)NN=Cc3c[nH]c4ccccc34)CC2)cc1 | 0.708
CCOC(=O)c1ccccc1OCc1cc(C=NNC(=O)c2cccnc2)ccc1OC | 0.694

Some of these compounds in order of molar mass, descending:
SMILES | E coli growth
COc1cccc(C=NN2CCN(c3ccncc3S(=O)(=O)N3CCCCC3)CC2)c1 | 0.731
CCOC(=O)c1ccccc1OCc1cc(C=NNC(=O)c2cccnc2)ccc1OC | 0.694
CC(=NNC(=O)c1nnn(-c2nonc2N)c1-c1ccc2c(c1)OCO2)c1ccccc1 | 0.645
CC(=O)Nc1ccc(NC(=O)CC(C)=NNC(=O)C(=O)N2CCCC2)cc1 | 0.689
Cc1[nH]c2ccccc2c1C=NNC(=O)CCC(=O)NCc1ccccc1 | 0.673
COc1cc(C=Nn2c(-c3cc(C)[nH]n3)n[nH]c2=S)cc(OC)c1O | 0.681
NC(Cc1ccc([N+](=O)[O-])cc1)=NOC(=O)c1ccc2ccccc2c1 | 0.773
O=C(NN=Cc1ccc(OC(=O)c2ccccc2)cc1)c1cccnc1 | 0.68
O=C(O)c1ccc(C=NNc2ncc(C(F)(F)F)cc2Cl)cc1 | 0.677
CC(=NNC(=O)CNC(=O)C1COc2ccccc2O1)c1ccco1 (stereo unspecified) | 0.647
CCOc1ccccc1C=NNc1cc(C)nc2ccc(C)cc12 | 0.646
CCCCCCOc1ccc(C=NNC(=O)C2CC2)cc1 | 0.655
COC(=O)NN=Cc1cc(C)n(-c2ccccc2)c1C | 0.696
O=C(O)c1cccc(-n2cccc2C=NO)c1 | 0.721

Carrying on.
SMILES | E coli growth
Cc1nn(C)c(C(=O)NN=Cc2ccccc2)c1[N+](=O)[O-] | 0.724
COc1ccc(C=NNC(=O)c2cccc(NC(=O)c3ccccc3Cl)c2)c(OC)c1 | 0.629
COCCNC(=S)NN=Cc1c2ccccc2cc2ccccc12 | 0.693
O=C(CN1CCCCC1)NN=Cc1cccc(C(F)(F)F)c1 | 0.659
Cc1ccc(SCCC(=O)NN=Cc2ccncc2)cc1 | 0.691
COc1ccccc1C=NNC(=O)c1cccc(NC(=O)c2ccccc2Cl)c1 | 0.724
COc1ccc(C=NNC(=O)Cn2nc(C)c([N+](=O)[O-])c2C)cc1 | 0.699
CCC(=O)Nc1cccc(C2=NOC3(C2)CC(C(N)=O)N(C(=O)c2cc([N+](=O)[O-])cc([N+](=O)[O-])c2C)C3)c1 (stereo unspecified) | 0.615
CCc1nnc(NN=Cc2c(F)cccc2Cl)n1N | 0.656
C=CCOC(=O)C1=CC(c2csc3ccccc23)C(CCCO)C(OCC)O1 (stereo unspecified) | 0.71
Cc1cc(C)c(S(=O)(=O)N=C2C=CC(=O)C(Cl)=C2)c(C)c1 | 0.75
O=C(O)c1ccc(NN=Cc2cccc3cccnc23)cc1 | 0.707
C=CCn1c(CNc2ccccc2)nnc1SCC(=O)NN=Cc1ccccc1O | 0.738
C=C(C)C(=O)N1CC2(CC(c3cccc(NC(=O)CC)c3)=NO2)CC1C(N)=O (stereo unspecified) | 0.651
O=C(ON=C1CCCc2ccccc21)c1cccs1 | 0.679
Cc1ccc(C(=O)NC(=CC=Cc2ccccc2)C(=O)NCc2ccco2)cc1 | 0.703&0.696
O=C(CON=Cc1ccccc1O)N1CCc2ccccc21 | 0.723
O=S(=O)(c1ccc(NC(=S)NN=Cc2cccc(Oc3ccccc3)c2)cc1)N1CCOCC1 | 0.758
CC(=NNC(=O)c1cc(-c2cccnc2)nc2ccccc12)c1ccc(O)cc1O | 0.693
Cc1ccc(NC(=O)CC2S/C(=N/N=C3CCCc4ccccc43)NC2=O)cc1 (stereo unspecified) | 0.666
CCN(CC)c1ccc(C=NNC(=O)Cc2ccc(OC)c(OC)c2)cc1 | 0.607
CC(=O)Oc1oc(-c2ccccc2)nc1C=Nc1ccccn1 | 0.676
O=C(C1=CC(C2CCCCC2)CC(OCCCCO)O1)N1CCN(Cc2ccc3c(c2)OCO3)CC1 (stereo unspecified) | 0.664&0.685
O=C(NN=Cc1ccc[nH]1)c1cc(-c2ccc(Cl)cc2)nc2ccccc12 | 0.696
O=C(Cn1nnc2ccccc21)NN=Cc1ccco1 | 0.689
CCCOc1ccc(C=NNC(=O)C(C)Sc2ccccn2)cc1OCC (stereo unspecified) | 0.682
COc1ccc(C=Nc2c(-c3ccco3)nc3ccccn23)cc1OC | 0.671
COc1cc(C=NNC(=O)c2nnn(-c3nonc3N)c2C(C)C)ccc1OCc1ccc(F)cc1 | 0.651
CC1C(=O)OCC1NC(=O)OCc1ccccc1 (stereo unspecified) | 0.701
Cc1cc(C)nc(N=C(N)Nc2ccc([N+](=O)[O-])cc2)n1 | 0.619
CC(Cc1ccccc1)=NNC(=O)CNC(=O)c1ccccc1Cl | 0.642
CC(=NNc1nc(N2CCCCC2)nc(N2CCOCC2)n1)c1cccs1 | 0.698
CCn1cc(C=NNC(=O)c2csc3ccccc23)c(C)n1 | 0.695
CC(=NNC(=O)Cc1ccccc1Cl)c1cccnc1 | 0.636
COc1ccc(C=NNc2nn3cnnc3c3ccccc23)cc1 | 0.622
NC(=NOC(=O)c1ccc(Cl)cc1)c1nonc1N | 0.699
O=[N+]([O-])c1cc(S(=O)(=O)Nc2ccc(Cl)cc2)ccc1NN=Cc1ccncc1 | 0.713
CC(O)Cc1cn(C(CCCCN)C(=O)N2CCNCC2)nn1 (stereo unspecified) | 0.634
O=c1[nH]c(-[n+]2ccccc2)c(C=N/N=C(\[O-])c2ccccc2)s1 | 0.811
COc1ccc(OC)c(C=NNC(=O)CC(=O)NCCc2ccccc2)c1 | 0.665

A few values from the entries so far:
CC(=NNc1nc(N2CCCCC2)nc(N2CCOCC2)n1)c1cccs1 | E coli growth: 0.698
COc1ccc(C=NNc2nn3cnnc3c3ccccc23)cc1 | E coli growth: 0.622

Continuation.
SMILES | E coli growth
O=C(O)CCC(C(=O)O)N1C(=O)c2ccccc2C1=O (stereo unspecified) | 0.712
COc1cccc(C=NNC(=O)C(C)n2nnc3ccccc32)c1 (stereo unspecified) | 0.662
NC(=NOC(=O)c1ccc(Cl)cc1[N+](=O)[O-])c1cccnc1 | 0.634
Cc1ccc(-n2[nH]c(C)c(C=C3C=Nc4ccccc43)c2=O)cc1C | 0.846
Cc1ccc(NC(=S)NN=C2CCCCC2C)cc1 (stereo unspecified) | 0.632
CC(=NNC(=O)CCC(=O)Nc1ccc(C)c(C)c1)c1cccs1 | 0.658
COc1ccccc1N1CCN(N=Cc2cc(OC)c(OC(C)=O)c(OC)c2)CC1 | 0.712
